# HNF4A DNA FP: change in binding of human HNF4 alpha to DNA. P41235. HNF4a-FITC DNA binding, fluorescence polarization, 1 h. activity change, % at 10 µM. actives 0.3% (n = 360,000). AID 1224865; in the data active means activity change above about 30%, passing the limit was not always enough;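 further: controls were the assay level and a saturating level of protein; the project sought stronger binding though the title names inhibitors; some compounds called inactive have numbers as strong as hits; positive values seem to mean higher polarization but the record does not say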
# UCH37 inh: human UCH37 deubiquitinating enzyme inhibition; Q9Y5K5; purified proteasome/UCH37, Ub-AMC cleavage fluorescence; inhibition, % (concentration not given with the values); actives 0.33% (n = 330,000); AID 588478;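 active means mean of two replicates above 20%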;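 further: 0% = compound-free wells with enzyme and 100% = wells lacking proteasome; stock transfer was 100 nL into about 20 µL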
# Target sequence (Q9Y5K5 whole entry, looked up): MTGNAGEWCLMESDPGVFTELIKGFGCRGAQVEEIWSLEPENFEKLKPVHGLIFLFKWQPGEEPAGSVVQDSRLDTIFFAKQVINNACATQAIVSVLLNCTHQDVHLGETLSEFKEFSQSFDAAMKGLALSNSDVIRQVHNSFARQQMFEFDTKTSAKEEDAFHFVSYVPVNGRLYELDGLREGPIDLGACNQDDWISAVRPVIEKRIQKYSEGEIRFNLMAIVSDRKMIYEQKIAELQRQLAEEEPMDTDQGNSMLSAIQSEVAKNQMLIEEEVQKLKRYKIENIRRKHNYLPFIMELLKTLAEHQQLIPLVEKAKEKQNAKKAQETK
#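 Material: human UCH37 enzyme supplied as purified proteasome complex. Measure: % inhibition of Ub-AMC cleavage fluorescence. Medium: pH 7.4 Tris-HCl (50 mM) with ovalbumin, ATP-MgCl2, DTT. Times: 30 min preincubation with enzyme, 25 min cleavage at room temperature. Detection: AMC fluorescence intensity at 355/460 nm.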
# Beta2AR agonist: human beta-2 adrenergic receptor agonism by FAP. response, % (no concentration beside the values). P07550. Am2.2-beta2AR cells, FAP receptor internalization, flow cytometry; reference of the scale not given here. actives 0.43% (n = 340,000);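 active means response above a set limit, near 3 SD of response in nonfluorescent compounds, cut at about 42% in these data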;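 further: stock transfer was 100 nL into about 11 µL; a reference agonist was the positive control; negative values mostly stem from fluorescent compounds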
# Target sequence (P07550 whole entry, looked up): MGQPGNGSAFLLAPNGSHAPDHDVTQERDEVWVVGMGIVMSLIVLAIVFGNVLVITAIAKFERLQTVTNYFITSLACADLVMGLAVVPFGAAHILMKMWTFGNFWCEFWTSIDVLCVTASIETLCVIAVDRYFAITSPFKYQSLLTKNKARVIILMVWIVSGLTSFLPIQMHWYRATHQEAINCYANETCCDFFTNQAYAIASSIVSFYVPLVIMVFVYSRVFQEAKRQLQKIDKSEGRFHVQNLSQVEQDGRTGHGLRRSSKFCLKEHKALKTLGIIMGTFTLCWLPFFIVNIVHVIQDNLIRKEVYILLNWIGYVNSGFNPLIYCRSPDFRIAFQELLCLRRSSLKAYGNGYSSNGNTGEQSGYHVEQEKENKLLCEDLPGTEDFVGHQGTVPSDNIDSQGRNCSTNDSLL
# ALR inh: human ALR oxidase inhibition via reduced H2O2; P55789; actives 3.8% (n = 290,000); inhibition, % (test concentration not listed); purified ALR, DTT oxidation, H2O2 HRP-luminol luminescence; AID 485317;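 active means mean and each replicate at 75% or more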;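 further: stock transfer was 7.5 nL into about 7.5 µL; 0% = neutral wells and 100% = wells with inactivated enzyme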
# Target sequence (P55789 whole entry, looked up): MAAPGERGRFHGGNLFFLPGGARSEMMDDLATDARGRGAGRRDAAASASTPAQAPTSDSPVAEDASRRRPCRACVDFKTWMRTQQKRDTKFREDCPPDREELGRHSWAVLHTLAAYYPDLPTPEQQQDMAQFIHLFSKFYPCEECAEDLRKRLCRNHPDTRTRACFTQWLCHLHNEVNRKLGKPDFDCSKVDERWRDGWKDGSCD
# LANA-H2A inh: blocks KSHV LANA binding to histone H2A/H2B; actives 0.6% (n = 320,000); AID 2629; Q9QR71; cell-free LANA-H2A/H2B peptide, fluorescence polarization; inhibition, % (test concentration not listed); in the data active means inhibition mostly above about 10%, no sharp cut-off; inactive means mostly below about 6.7%;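 further: stock transfer was 7.5 nL into about 10 µL; 0% = median of vehicle wells and 100% = median of positive control wells; one replicate is shown; the record names a cut of 25% in any replicate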
# E coli growth: inhibitors of Escherichia coli growth | OD600, 23 h; active compounds read low | OD600 absorbance (test concentration not listed) | actives 0.21% (n = 330,000) | AID 1053175;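 active means OD600 absorbance below the run mean of sample wells minus 3.6 SD, in any replicate, cut at about 0.56 in these data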;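 further: stock transfer was 300 nL into about 60 µL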
# FGF22 binding: binders of recombinant human FGF22 by thermal shift. AID 651658. SYPRO orange fluorescence; percent of sucrose octasulfate shift, DMSO zero. actives 1.5% (n = 340,000). calls only at 9.99 µM. Q9HCT0;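 active means melting point raised past a set limit in the mean and every replicate; three in four hits are not shown here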
# Active calls of the source: *; i = inactive; . = no result given; & = joins results of further samples. This is a subset (hit frequency here may not be typical).
SMILES,HNF4A DNA FP,UCH37 inh,Beta2AR agonist,ALR inh,LANA-H2A inh,E coli growth,FGF22 binding
O=C(Nn1c(=S)[nH]c2ccccc2c1=O)c1ccncc1,-2.9,0.7,-7,13,-0.1,0.65,.
COc1ccc(CC(=O)Nc2sc(Cc3ccccc3)c(C)c2C(N)=O)cc1,1.2,0.6,7,-20,2.3,0.75,.
COc1ccc2cc3[n+](cc2c1OC)CCc1cc2c(cc1-3)OCO2,2.0&-4.5,7.5&3.3,0&-9,-11&-36,-1.0&-5.0,0.62&0.63,i
COC(=O)/C=C/c1ccc(OC(=O)c2ccncc2)cc1,-5.6,3.3,5,2,5.9,0.7,i
COc1ccc(CNC(=S)Nc2cccc(C)c2C)cc1,4.7,-1.1,-8,2,-1.2,0.73,.
Cc1cc(NC(=O)c2ccc(F)c(S(=O)(=O)N3CCCCC3)c2)no1,0.6,3.9,-9,.,.,0.7,i
Cc1cc2n(n1)SC(Nc1cccc3ccccc13)N2 (centres undefined),1.0,2.0,2,-41,0.3,0.66,.
COc1cc(NC(=O)c2ccco2)c(OC)cc1NC(=O)CCC(=O)Nc1cc(C)cc(C)c1,-2.6,-80,-20,-11,-3.4,0.66,.
Cn1c(=O)c2c(nc(N3CCCCCC3)n2CCSc2nc3ccccc3o2)n(C)c1=O,-1.4,5.4,-19,-4,-4.3,0.75,i
COC(=O)c1c(NC(C)=O)csc1C,-1.0,5.2,2,0,-1.3,0.7,i
CCOC(=O)c1c(NC(C)=O)sc2c1CCN(Cc1ccccc1)C2,3.5,3.9,7,1,-5.6,0.75,i
CC1CCN(S(=O)(=O)c2ccc(S(=O)(=O)NCc3ccco3)cc2)CC1,-5.1,3.0,1,3,1.9,0.67,.
CCS(=O)(=O)N1CCN(c2cccc(C)c2C)CC1,-0.7,-3.2,8,2,2.7,0.73,.
COc1ccccc1NC(=O)COC(=O)c1ccccc1OCC(=O)Nc1ccc(SC(F)F)cc1,-2.5,1.7,5,-10,1.5,0.72,i
CN(C)S(=O)(=O)N1CCN(CC(=O)Nc2cc(Cl)ccc2Cl)CC1,1.2,5.0,-5,-8,4.3,0.68,.
CC1CN(CCS(=O)(=O)c2cc(Cl)ccc2Cl)CC(C)O1 (centres undefined),-1.5,0.4,-2,2,1.1,0.66,i
O=C(CCCCCn1c(=S)[nH]c2ccc(N3CCOCC3)cc2c1=O)NCCc1ccccc1,-2.0,-99,-3,-55,0.7,0.71,.
Cc1ccc(Nc2c(O)nc[nH]c2=O)cc1,-2.2,3.0,-1,.,.,0.7,i
O=S(=O)(NC12CC3CC(CC(C3)C1)C2)c1ccc(F)cc1,0.8,3.5,8,-5,6.6,0.67,.
CC1=NN(c2nc(-c3ccc(F)cc3)cs2)C(=O)C1,4.0,2.1,-2,-1,-1.8,0.7,.
Cc1ccc(C(=O)Nc2ccc3ncccc3c2)cc1,0.2,1.9,-4,-10,0.6,0.66,i
COc1cccc(C2C(C(=O)c3cc4ccccc4o3)=C(O)C(=O)N2c2cc(C)on2)c1 (centres undefined),2.0,-5.9,9,98*,7.5,0.73,i
CC1CCCCN1C(=O)CSc1nnc(-c2ccco2)n1CC1CCCO1 (centres undefined),-1.1,0.3,-10,26,3.5,0.64,.
COCCn1c(N)c(N(Cc2ccccc2)C(=O)C2CCCCC2)c(=O)[nH]c1=O,0.7,0.6,3,-18,-2.9,0.69,i
CCCOc1ccc(CCc2n[nH]c(=S)n2-c2ccccc2)cc1,2.4,4.5,-1,8,0.6,0.71,i
Cc1ccnc(NS(=O)(=O)c2ccc(NC(=O)c3ccc(S(=O)(=O)N4CC(C)OC(C)C4)cc3)cc2)n1 (centres undefined),-3.0,-0.2,-11,-3,-0.8,0.73,.
CCOC(=O)C1CCCN(C(=O)c2cc(S(=O)(=O)N3CCCCC3)c[nH]2)C1 (centres undefined),-1.0,5.4,2,-9,-2.9,0.72,i
Cc1ccc(CSc2nnc([C@@H]3CCCN3)o2)cc1,-0.7,3.4,-2,-20,-2.6,0.7,.
Clc1ccc(CSc2ncn(-c3ccccc3)n2)cc1,-1.1,1.1,-19,1,-1.0,0.67,.
Cn1c2ccccc2c(=O)c2c(=O)n(C3CCCCC3)c(-c3cccs3)nc21,6.6,3.6,-12,1,-1.3,0.72,.

# Overlap with the part before: 4 compounds, followed by the next part.
SMILES,HNF4A DNA FP,UCH37 inh,Beta2AR agonist,ALR inh,LANA-H2A inh,E coli growth,FGF22 binding
CCOC(=O)C1CCCN(C(=O)c2cc(S(=O)(=O)N3CCCCC3)c[nH]2)C1 (centres undefined),-1.0,5.4,2,-9,-2.9,0.72,i
Cc1ccc(CSc2nnc([C@@H]3CCCN3)o2)cc1,-0.7,3.4,-2,-20,-2.6,0.7,.
Clc1ccc(CSc2ncn(-c3ccccc3)n2)cc1,-1.1,1.1,-19,1,-1.0,0.67,.
Cn1c2ccccc2c(=O)c2c(=O)n(C3CCCCC3)c(-c3cccs3)nc21,6.6,3.6,-12,1,-1.3,0.72,.
CCN(CC)c1ccc2c(cc1=O)[C@@H](NC)CCc1cc(OC)c(OC)c(OC)c1-2,3.0,.,28,23,-1.0,.,i
c1ccc(CSc2nnc([C@@H]3CCCN3)o2)cc1,5.6,4.0,-9,-5,1.1,0.7,.
N#CC1=C(SCC(=O)Nc2nccs2)NC(=O)CC1c1ccccc1 (centres undefined),1.2,1.9,-6,37,-2.9,0.71,i
COc1ccc(/C=N/NC(=O)CCc2c(C)n[nH]c2C)cc1O,-1.6,.,1,99*,4.9,.,.
Cc1ccn2c(=O)nc(SCC(=O)Nc3cc(C)on3)nc2c1,1.3,-0.5,-3,0,-0.2,0.7,.
CC(C)(C)c1cccc(OCCCSc2ncccn2)c1,3.9,5.4,-14,20,-2.6,0.73,.
C[C@H](NC(=O)c1nc[nH]c1C(=O)N[C@@H](Cc1ccccc1)C(=O)OCc1ccccc1)C(=O)OCc1ccccc1,-1.0,3.8,-2,2,-2.4,.,i
COc1nc(C)cc(C)c1S(=O)(=O)c1ccccc1C,-0.9,-1.6,6,-3,0.1,0.63,i
CCOC(=O)C1=C(C)NC(C)=C(C(=O)OC)C1c1cccc([N+](=O)[O-])c1 (centres undefined),-2.3,2.3,-12,.,-1.3&-3.2,0.66,i
O=C(Cn1cnc2c(NCc3ccccc3)ncnc21)NCc1ccccc1,0.6,-1.0,9,.,.,0.72,i
CC(C)c1ccc(C2NC(=O)CCC2[N+](=O)[O-])cc1 (centres undefined),2.3,0.9,-8,-13,3.2,0.7,i
Cc1cc(C)cc(C(=O)OCC(=O)NC(=O)NC2CCCC2)c1,3.5,4.6,-11,0,-5.5,0.62,i
COc1cccc(/C=N/NC(=O)C(=O)NCc2cccnc2)c1,-1.0,.,5,.,3.2,.,.
CSc1ccc(CN2C(=O)NC3(CCCCC3)C2=O)cc1,-2.6,3.0,-2,4,3.9,0.71,i
Cc1ccc(NC(=O)c2cc(S(=O)(=O)N3CCOCC3)c(Br)s2)cc1,2.4,2.2,27,-2,0.9,0.67,i
CCOC(=O)CSc1nc2c(c(=O)[nH]c(=O)n2C)n1CCc1ccccc1,3.1,-0.2,10,-10,-2.9,0.72,.
COc1cccc(C2c3[nH]c4ccccc4c3C[C@H]3C(=O)N(CCCOC(C)C)CC(=O)N23)c1 (some centres undefined),1.2,6.4,24,-19,2.3,0.69,i
CC(=O)Nc1cc(NC(C)=O)cc(C(=O)N2CCCC3CCCCC32)c1 (centres undefined),-11,5.2,-7,-4,-3.9,0.72,i
O=C(CCc1ccccc1)Nc1ccc(Cl)cn1,4.9,3.4,2,0,0.8,0.75,.
COC(=O)[C@@]1(Cc2ccc(F)cc2)[C@H]2c3cc(C(=O)N4CCCC4)n(CCc4ccccn4)c3C[C@H]2CN1C(=O)c1ccccc1,.,-0.1,.,.,18*,.,i
O=C(O)CC/C(=N\NC(=O)CNC(=O)/C=C/c1ccccc1)c1ccccc1,1.4,.,3,0,9.3,.,i
CC(C)[C@H]1COCCS(=O)(=O)N1Cc1ccccc1-c1cccc(Cl)c1,7.0,6.3,-7,.,.,0.69,i
O=C(NC1CCCCC1)C(c1cccs1)N(C(=O)C(F)(F)F)c1ccccc1 (centres undefined),-1.1,0.7,7,0,-0.9,0.72,.
CCCc1cc(=O)[nH]c(SCC(=O)N2C(C)CCCC2C)n1 (centres undefined),3.1,-1.4,-8,-4,-1.8,0.69,i
O=C(O)/C=C/c1ccc2noc(-c3ccccc3)c2c1,-0.7,16,17,5,-0.2,0.66,i
O=C1c2ccccc2S(=O)(=O)c2cc(C(=O)N3CCCC3)ccc21,4.6,2.7,-19,.,8.6,0.66,i
O=C(O)C1CC(c2ccc(F)cc2)=NO1 (centres undefined),-28,6.7,-9,3,4.9,0.69,.
O=C(O)C1=CCCN(CCON=C(c2ccccc2)c2ccccc2)C1,2.3,0.8,16,-10,2.8,0.69,i
C=CCn1c2c(c(=O)[nH]c1=S)CN(C(C)c1ccccc1)CN2 (centres undefined),6.3,-3.6,9,19,2.2,0.62,i
CN(CC(=O)O)S(=O)(=O)c1ccc2[nH]c(=O)c(=O)[nH]c2c1,-0.1,-3.5,4,-12,0.5,0.66,i

# Reformatted with tabs: entries from further up.
molecule	HNF4A DNA FP	UCH37 inh	Beta2AR agonist	ALR inh	LANA-H2A inh	E coli growth	FGF22 binding
O=C1c2ccccc2S(=O)(=O)c2cc(C(=O)N3CCCC3)ccc21	4.6	2.7	-19	.	8.6	0.66	i
O=C(O)C1CC(c2ccc(F)cc2)=NO1 (centres undefined)	-28	6.7	-9	3	4.9	0.69	.

# New compounds follow
SMILES,HNF4A DNA FP,UCH37 inh,Beta2AR agonist,ALR inh,LANA-H2A inh,E coli growth,FGF22 binding
CCCCc1ccc(NC(=S)NCc2cccs2)cc1,3.4,6.5,1,3,4.0,0.7,.
Cn1c(NC(=O)c2ccc(Br)o2)cc(=O)n(C)c1=O,-0.5,8.9,8,-9,1.2,0.77,.
CCN(CC)CCNC(=O)c1ccc(NC(=O)Nc2cccc3ccccc23)cc1,-0.1,3.8,23,-10,-1.4,0.66,i
CCN(CC)CCC(c1ccc(N(C)C)cc1)c1c(O)cc(OC)cc1OC (centres undefined),-1.6,0.9,-4,99*,-1.0,0.65,.
COc1ccccc1CNS(=O)(=O)c1ccc(-n2cnnn2)c(OC)c1,-0.4,-0.6,3,-9,2.2,0.62,i
COc1ccc(N2C(=O)CC(NCCNc3ccc([N+](=O)[O-])cn3)C2=O)cc1 (centres undefined),0.5,11,5,-4,8.2,0.68,.
CN(c1ccccc1)S(=O)(=O)c1ccc(C(=O)NCc2cccs2)cc1,-3.5,5.0,-2,-4,2.0,0.73,i
O=C(c1ccc(S(=O)(=O)Nc2ccccc2Cl)cc1)N1CCCC1,-0.5,4.2,6,1,0.7,0.67,i
O=C(NC1CCCCCC1)C(=S)NC1CCCCC1,4.7,0.7,-2,-1,.,0.75,i
O=C(O)C1C2CC2CN1C(=O)c1ccc(Cl)cc1 (centres undefined),-0.2,1.6,-3,4,11,0.67,i
CC(C)N(C(=O)C(=O)c1cccn1-c1ccccc1C#N)C(C)C,-0.1,0.5,2,-51,-1.9,0.7,.
Cc1ccc(CN2CCNC(=O)C2CC(=O)N(C)CCc2cnn(C)c2)cc1 (centres undefined),-0.4,-1.5,-2,-13,-3.7,0.74,i
O=c1cc(CSc2nnnn2-c2ccccc2)nc2sccn12,-8.7,-0.9,-2,-13,-1.4,0.64,i
CCOC(=O)C(C)n1nc(/C=C/c2ccccc2)ccc1=O (centres undefined),4.2,-25,14,-10,-1.0,0.73,.
Cc1oc(/N=C/c2ccc(F)cc2)c(C#N)c1C,0.1,.,9,1,1.7,.,i
Cc1noc(C)c1C(=O)Nc1ccc(F)c(F)c1,0.9,0.3,-5,-5,1.8,0.71,.

# Assay outcomes: PubChem, several laboratories
